High-throughput results (PubChem BioAssay)
ClpP mod = qHTS Assay for Activators of ClpP; ATP-dependent Clp protease proteolytic subunit (Bacillus subtilis (strain 168)), P80244; purified B. subtilis ClpP, FRET peptide cleavage, 20 min; Potency, µM (top dose mostly 57.5 µM), for the others: at the top dose activity change, negative = active; actives 1.9% (n = 340,000); AID 651965, 2013; active = well fitted falling curve with a large enough effect; inconclusive = small, poorly fitted or top-dose-only effect; inactive = no such curve, though single readings can be large or run the other way; further: potency means the concentration at half of the fitted maximal effect; the source files actives as falling curves though it sought activators and does not explain the sign; nearly all actives have a fitted effect of over 65% in size; many hits overshoot -100%
Target sequence (P80244 whole entry, looked up): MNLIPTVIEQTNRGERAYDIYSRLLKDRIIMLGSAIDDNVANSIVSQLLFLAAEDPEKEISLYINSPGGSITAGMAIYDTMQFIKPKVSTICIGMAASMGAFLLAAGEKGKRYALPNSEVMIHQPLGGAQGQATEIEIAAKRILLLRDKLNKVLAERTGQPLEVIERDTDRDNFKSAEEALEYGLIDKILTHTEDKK
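ClpP 10 microg/mL final, pH 8 Tris/KCl buffer with BSA, glycerol, Tween-20; compound pinned in; FRET-FV substrate; RT 20 min; Ex320/Em430; ΔFRET vs ADEP 5.8 microM, DMSO, no enzyme.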
Menin-MLL FL inh = menin-MLL binding inhibition, fluorescein peptide; Fluorescence polarization, fluorescein-MLL peptide displacement from menin; FP activity change, % at 61.4 µM; 290,000 tested, under 10 active; inconclusive = falling polarisation curve, or a change in total fluorescence; inactive = total fluorescence flat and polarisation flat or rising; no compound was filed as active; the % refers to the polarisation; negative = inhibition;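 further: % of control where 0% means no effect; inhibitors lower the polarisation; unlabelled MLL peptide was the positive control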
Sfp PPTase inh = inhibitors of Bacillus subtilis Sfp phosphopantetheinyl transferase | Q9F4F7 | Biochemical Sfp PPTase activity, qHTS | actives 3.5% (n = 310,000) | Potency, µM, without a hit: max response, negative = inhibition, usual class: inhibitors; active means well fitted inhibition curve with a large enough effect; inconclusive means small, poorly fitted or top-dose-only effect, or another doubt; inactive means no such curve, though single readings can be large or run the other way;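 further: the enzyme is Sfp with the accession as filed and its product quenches rhodamine fluorescence; potency means the concentration at half of the fitted maximal effect; 0% = enzyme reaction without inhibitor and -100% = no enzyme wells; top concentration of the series not given in the record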
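Reaction rates are the 30-min fluorescence difference (ex 525, em 598 nm) in wells containing 15 nM Sfp, 5 uM rhodamine-CoA and 12.5 uM BHQ-2-YbbR at pH 7.6 with 10 mM MgCl2.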
gsp ag = agonists of gsp mutant (McCune-Albright syndrome); actives 0.13% (n = 340,000); gsp mutant cells, cAMP HTRF, 30 min; control for the full effect not named in the record; Potency, µM (highest dose often 76.9 µM), for inactives: at the top dose activation (cAMP increase), usual class: activators; active = well fitted activation curve with a large enough effect; inconclusive = small, poorly fitted or top-dose-only effect, or another doubt; inactive = no such curve, though single readings can be large or run the other way; cell line not stated here;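 further: phosphodiesterase inhibitor Ro 20-1724 added with compounds to block cAMP breakdown; potency means the concentration at half of the fitted maximal effect; nearly all actives have a fitted effect of over 60% in size; about a fifth of the inactives were tested at one dose only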
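Cells in DMEM/10% FBS with G418 were pretreated with compounds in DMSO plus […] (300 uM stock) for 30 min at 37C. cAMP was measured by HTRF (cAMP-d2 plus anti-cAMP antibody-K) after 30 min at room temperature.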
TRPV1 potentiator = human TRPV1 potentiation. potentiation, % at 8.33 µM. actives 0.02% (n = 320,000). Q8NER1. TRPV1-expressing cells, Fluo-8 calcium influx, capsaicin EC20 potentiation; host cell line not named in the record; control for the full effect not named in the record; active means potentiation above 80%; inconclusive means 30% to 80%; inactive means below 30%; further: 0% is about no effect
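TRPV1-expressing cells were cultured overnight at 35.5C and loaded with Fluo-8 calcium dye for 40 to 90 min at room temperature. After a 10 s baseline, compound was added and calcium influx was read kinetically for 3 min (ex 480/em 520 nm).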
gsp antag = gsp mutant antagonism | gsp-mutant cells, cAMP HTRF, 30 min; control for the full effect not named in the record | Potency, µM (doses to about 76.9 µM), for the others: at the highest dose activity change, negative = inhibition, most hits filed as inhibitors | actives 0.4% (n = 340,000); active = falling curve of any shape with a large fitted effect; inconclusive = falling curve, mostly with a smaller effect; inactive = flat or rising curve; cell line not stated here;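 further: intracellular cAMP measured with PDE inhibitor Ro 20-1724 present during compound exposure; potency means the concentration at half of the fitted maximal effect; on the % scale 0 is the no-effect control and ±100 the full control effect; nearly all actives have a fitted effect of over 65% in size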
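HTRF cAMP measurement after 30 min RT detection following 30 min, 37C compound treatment alongside […] (added as 300 uM solution) in G418-selected cells seeded at 2000/well and grown 16–24 h.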
TRPML1 inh = inhibitors of human TRPML1 channel | actives 0.02% (n = 390,000) | AID 624415 | TRPML1-inducible cells, Ca2+ dye fluorescence, FDSS; hits give low values; inhibition of EC80 agonist-evoked calcium signal | activity change, negative = inhibition, % (concentration not given with the values); in the data active means activity change below about -50%; inconclusive means about -30% to -50%; inactive means above about -30%;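 further: stimulus is agonist 54-4 at its EC80 concentration; on the % scale 0 is the no-effect control and ±100 the full control effect; compound concentration not given in the record; the text of the record puts the active cut at -80%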
Target sequence (Q9GZU1 whole entry, looked up): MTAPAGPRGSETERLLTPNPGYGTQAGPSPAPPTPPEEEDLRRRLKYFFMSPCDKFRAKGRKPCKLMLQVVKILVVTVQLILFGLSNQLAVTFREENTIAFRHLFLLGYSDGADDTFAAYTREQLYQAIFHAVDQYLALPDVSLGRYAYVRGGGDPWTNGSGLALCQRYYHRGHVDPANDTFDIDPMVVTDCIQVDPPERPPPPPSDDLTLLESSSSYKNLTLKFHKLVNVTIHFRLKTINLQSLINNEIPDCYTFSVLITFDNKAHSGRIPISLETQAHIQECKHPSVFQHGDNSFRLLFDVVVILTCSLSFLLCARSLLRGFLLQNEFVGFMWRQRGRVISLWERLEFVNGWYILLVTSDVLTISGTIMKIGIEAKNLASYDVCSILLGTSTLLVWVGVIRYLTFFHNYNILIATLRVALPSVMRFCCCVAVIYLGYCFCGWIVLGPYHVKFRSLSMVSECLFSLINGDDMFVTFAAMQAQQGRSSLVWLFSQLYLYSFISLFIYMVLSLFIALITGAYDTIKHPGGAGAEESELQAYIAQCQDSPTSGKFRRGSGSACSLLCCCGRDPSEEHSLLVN
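TRPML1-DL cells, Tet-induced overnight (~16 h, 37 °C) at 1,500 cells/well, were loaded with Ca8 no-wash dye plus quencher for 45-90 min at room temperature. Compounds were pinned during FDSS kinetic reading; agonist 54-4 at EC80 (4 uM final) then added.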
The depositor's hits bear a star; ? = inconclusive; . = no result given; [ ] = another dose, or the depositor's remark.

SMILES	ClpP mod	Menin-MLL FL inh	Sfp PPTase inh	gsp ag	TRPV1 potentiator	gsp antag	TRPML1 inh
O=C(CC1C(=O)NCCN1Cc1cccc(F)c1F)NCCCC1CCCC1 (stereo not given)	1.9%	.	3%	-41%[inhibitor]	5	1%	1
Fc1ccc(NC(=S)Nc2cccnc2)cc1Cl	-2.4%	0.0	28µM*	23%	4	4%	-2
O=C(Nc1c(S(=O)(=O)c2ccc(Cl)cc2)csc1Br)c1ccccc1Cl	.	-2.9	0%	-1%[15.4 µM]	0	-11%	-8
COc1ccc(N(C(=O)c2ccco2)C(C(=O)NC2CCCC2)c2cccs2)c(OC)c1 (stereo not given)	.	-1.5	9%	-5%	8	-3%	32
COc1ccc(/C=C2\SC(=S)N(CCCC(=O)Nc3ccc(O)cc3)C2=O)cc1	0.3%	4.3	12%	-2%	-11	-34%	.
COc1ccc(-c2ccnc3nc(N4CCOCC4)nn23)cc1	16µM*	-0.6	10%	0%	-16	2%	16
CCc1nnc(NC(=O)c2cccc(S(=O)(=O)N3CCc4ccccc43)c2)s1	0.2%	0.2	-1%	-8%	19	1%	2
Cc1nn(-c2ccccc2)c(C)c1C(=O)OCC(=O)NCc1ccco1	0.8%	4.3	?	-39%[inhibitor]	-10	23%	20
O=C(CCN1CCN(c2ccc([N+](=O)[O-])cc2)CC1)c1ccc(Cl)cc1	.	.	?	3%	3	-4%	25
Cc1cc(=O)n2[nH]c(NCc3c(F)cccc3Cl)nc2n1	.	0.1	-21%	-6%	-1	0%	3
CN(C)C(=O)c1ccc(NC(=O)COc2cccc3c2OC(C)(C)C3)cc1	-6.5%	.	.	?	-11	2%	-6
Cc1cc(C)c2c(=O)[nH]n(C3CCOC(C)(C)C3)c2n1 (stereo not given)	-4.6%	4.6	24%	-1%	-7	1%	6
COc1ccc(/C=N/n2c(C)cc(C)cc2=O)cc1	.	0.5	1%	3%	11	1%	-15
O=C(NCC(c1cccs1)N1CCOCC1)c1cn(-c2ccccc2)nc1-c1ccccc1 (stereo not given)	-0.7%	.	.	-46%[inhibitor]	-3	-26%	13
O=C(CSc1ccc2nnc(-c3cccnc3)n2n1)N1CCc2ccccc21	.	-1.1	21%	.	9	.	.
COc1ccc(S(=O)(=O)N2CCOC2CNC(=O)C(=O)NCCCN2CCOCC2)cc1C (stereo not given)	0.6%	-1.3	0%	14%	2	13%	-4
CCCCN(C(=O)c1cc2c(s1)CCC2)c1c(N)n(CC(C)C)c(=O)[nH]c1=O	-1.5%	.	.	11%	-1	5%	1
C/C=C(\C)C(=O)Nc1cccc(C2=NOC3(C2)C[C@H](C(N)=O)N(C(=O)CC#N)C3)c1 (stereo not given in full)	-3.7%	-2.9	12%	18%	?	-7%	13
Cc1occc1C(=O)N1CCN(c2ccc(Cl)cc2)CC1	0.6%	.	16%	-13%[15.4 µM]	-19	5%	13
COC(=O)c1c(C)[nH]c(C(=O)C(C)OC(=O)C2CC2C)c1C (stereo not given)	-1.5%	.	.	4%	-14	2%	2
CCOC(=O)c1n[nH]c2ccccc12	?	-0.9	3%	-9%	0	3%	-7
O=C(CSCc1ccccc1)NNC(=S)Nc1cccc(Cl)c1Cl	0.0%	3.8	25%	-12%	10	-13%	6
CCOC(=O)c1c(C)c(C(=O)N2CCCCCC2)c(C)n1C	0.1%	1.1	-11%	1%	4	11%	16
CC(C)n1cc(/C=C2\NC(=O)N(c3cccc(Cl)c3)C2=O)c2ccccc21	-3.5%	6.8	-4%	-17%	-2	-2%	5
CCOc1c2ccc(C(=O)NCc3ccco3)cc2nn1CC	3.8%	0.0	-3%	?	0	4%	-20
CCc1c(C)sc(NC(=O)c2cc(C3CC3)on2)c1C#N	-1.4%	9.8	0%	?	.	-16%	12
CN(C(=O)Nc1ccc(C(C)(C)C)cc1)C1CCCCC1	.	3.6	17%	4%	-20	15%	-14
Cc1ccc(N(C(=O)c2ccccn2)C2(C(=O)NC3CCCC3)CCCCC2)cc1	-0.2%	-1.0	6%	8%	-17	-5%	-5
O=C(Nc1cc(C(=O)N2CCOCC2)ccc1N1CCCC1)c1cccs1	-0.1%	0.8	9%	-19%	1	3%	-1
CC(C)c1ccc(OCC(=O)N2CCN(c3ccccn3)CC2)c(Br)c1	-7.1%	4.5	2%	-4%	-4	?	17
CN(CCCNC(=O)C1CCC(=O)N1Cc1ccc(F)cc1)c1ccccc1 (stereo not given)	1.0%	0.6	23%	?	.	-5%	-1
CC(C)COc1ccc(C(=O)NNC(=O)CCC(=O)c2cccs2)cc1	0.7%	.	.	6%	.	-2%	22
COc1cc2c(cc1OC)CN(Cc1cc(=O)n3cc(C)ccc3n1)CC2	?	1.4	-1%	-6%	10	17%	2
COc1cccc(CC2(CO)CCCN(Cc3ccc(OC)c(C)c3OC)C2)c1 (stereo not given)	-2.1%	-2.6	6%	-17%	-9	14%	-2
CC(C)C(NC(=O)OC(C)(C)C)C(=O)N1CCCC1C(=O)NC(Cc1ccccc1)C(N)=O (stereo not given)	-3.5%	1.7	8%	7%	.	5%	2
CN(C)C=Nc1nc2ccccc2nc1N1CCCC1	.	?	-28%	-9%[15.4 µM]	-4	-20%	-3
C=CC[C@H](CC(=O)N(CCO)Cc1ccccc1)C(=O)N[C@H](COC(=O)[C@@H](CC=C)Cc1ccc(F)cc1)Cc1c[nH]c2ccccc12	-1.3%	.	.	6%	.	?	16
Cc1cc(N2CCCCC2)n2ncc(-c3ccc(Cl)cc3)c2n1	32µM*	-2.9	-23%	1%	0	-1%	20
CC(=O)Nc1ccc(C(=O)COC(=O)CCN2C(=O)C3CC=CCC3C2=O)cc1 (stereo not given)	0.1%	2.8	9%	11%	10	-1%	12
O=C(NCCN1CCOCC1)C1CCC(=O)N1Cc1ccc(F)cc1 (stereo not given)	-1.2%	0.3	6%	?	5	5%	13
O=C(CNC(=O)c1cccc(F)c1)OCC(=O)N1CCCCC1	0.2%	-0.7	-6%	67%	0	-2%	-7
CC(=O)OC1CCC2(C)C(CCC3C4CC=C(C(C)=O)C4(C)OC(=O)CC32)C1 (stereo not given)	1.8%	.	.	2%	.	.	-3
CN(C)CCNC(=O)c1ccc2c(=O)n(Cc3ccc(Cl)cc3)c(=S)[nH]c2c1	.	-0.1	?	-15%	-11	-5%	-10
CCOC(=O)c1cccc(N/C=C/C(=O)c2ccc(OC)c(OC)c2)c1	-6.8%	5.2	?	7%	-13	-6%	0
CC(C)c1ccc(S(=O)(=O)Nc2ccc(O)c(Sc3ncn[nH]3)c2)cc1	-1.5%	.	-1%	-45%[inhibitor]	-6	-12%	0
CC(C)(C)OC(=O)N1CCCN(C(=O)Nc2ccc(OC(F)(F)F)cc2)CC1	.	-5.7	6%	9%	-6	-12%	-5
CC(C)[C@@H]1NC(=O)c2cc([N+](=O)[O-])cc(I)c2OCC[C@@H](C(N)=O)NC(=O)[C@H](CCC(=O)O)NC1=O	1.2%	1.6	34%[activator]	3%	-4	2%	20
CSCCC(NC(=O)c1ccco1)C(=O)N1CCCC(C(F)(F)F)C1 (stereo not given)	-3.8%	.	.	-2%	1	-6%	-17

Entries above that have a cyano group:
SMILES	ClpP mod	Menin-MLL FL inh	Sfp PPTase inh	gsp ag	TRPV1 potentiator	gsp antag	TRPML1 inh
C/C=C(\C)C(=O)Nc1cccc(C2=NOC3(C2)C[C@H](C(N)=O)N(C(=O)CC#N)C3)c1 (stereo not given in full)	-3.7%	-2.9	12%	18%	?	-7%	13
CCc1c(C)sc(NC(=O)c2cc(C3CC3)on2)c1C#N	-1.4%	9.8	0%	?	.	-16%	12

The list continues:
SMILES	ClpP mod	Menin-MLL FL inh	Sfp PPTase inh	gsp ag	TRPV1 potentiator	gsp antag	TRPML1 inh
Cc1ccc(C(=O)NC2CCN(C(=O)N3CCOCC3)CC2)cc1	-1.9%	4.2	20%	0%	14	14%	-6
CC(C)CNC(=S)N1CCC(Cc2ccccc2)CC1	0.4%	-1.3	12%	-4%	-14	-3%	-4
O/N=C/c1ccn(-c2ccc(Br)cc2)c1	0.2%	-1.1	-2%	3%	-33	10%	26
COc1ccc(NC(=O)CSc2nnc(C3CCCCC3)n2N)cc1OC	0.0%	-3.0	5%	-5%	4	10%	1
CC(C)(O)CN(CCCNC(=S)Nc1ccccc1)C(=S)Nc1ccccc1	-1.6%	.	.	-7%	.	-8%	-22
O=c1c(-c2ccccc2)cocc1-c1ccccc1	-1.3%	.	.	-2%	.	.	-2
Cc1ccc(C(=O)NNC(=S)NC(=O)c2ccc(Cl)cc2Cl)cc1	0.1%	9.4	23%	-12%	-19	1%	4
Cc1ccc(CNC(=S)N(C)C)cc1	.	1.8	5%	-5%[15.4 µM]	-9	9%	0
CCN1CCCC1CN(Cc1cc2ccc(C)cc2[nH]c1=O)C(=S)Nc1ccc(F)cc1 (stereo not given)	-22%	1.5	22%	2%	1	-11%	9
NC(=O)Cn1c(=O)n(CCC(=O)Nc2ccc(F)cc2)c(=O)c2sccc21	1.8%	-6.7	14%	13%	9	16%	1
Cc1c(NC(=O)CN2C(=O)NC(C)(c3ccccc3)C2=O)c(=O)n(-c2ccccc2)n1C (stereo not given)	-3.4%	4.5	14%	15%	-4	14%	-8
O=C(CCn1c(=O)[nH]c2ccsc2c1=O)N(CCc1ccccc1)Cc1ccccc1	0.0%	2.5	5%	2%	-2	-19%	-11
O=[N+]([O-])c1ccccc1SNc1ccccn1	0.7%	4.7	11%	0%	0	18%	-1
COc1ccc(C)cc1S(=O)(=O)N(C)CC(=O)N1CCN(c2ccccc2)CC1	.	2.8	19%	-49%[inhibitor]	4	-8%	19
COc1ccccc1C(=O)Nc1cccc2cccnc12	.	30	-9%	-72%[inhibitor]	3	-21%	8
CCOC(=O)N1CCC(NC(=O)Cc2cn(C)c3ccccc23)CC1	-21%	-1.3	-8%	-17%	4	4%[15.4 µM]	13
COc1cc(S(=O)(=O)N2CCCCC2)ccc1NC(=O)c1ccc(F)cc1	75%	3.1	24%	-9%	-4	5%	53
Cc1ccc(S(=O)(=O)N2CCN(CC(=O)N/N=C/c3ccccc3OCC(=O)O)CC2)cc1	.	1.4	17%	-15%[15.4 µM]	26	0%	2
